High-throughput results: PubChem, Fisher Drug Discovery Resource Center
NPYLR7 ag = mosquito NPYLR7 agonism | HEK293T NPYLR7/Galpha15, GCaMP6s calcium fluorescence | activation, % at 10 µM | 0.15% of 270,000 active | AID 1259423; in the data active = activation above about 40%;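 note: 0% = vehicle and 100% = reference agonist at the receptor; some compounds past the cut are filed as inactive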
NPYLR7 ag max-min = second read-out of NPYLR7 ag, no call of its own (marks repeat the call); activation, %; measured here: Max-Min RFU normalised activation; some inactives read as strong as hits;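 span of the calcium signal over five minutes; 0% = vehicle and 100% = native peptide agonist; compound fluorescence can raise it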
* marks the source's active call; other numbers are inactive results. This is a subset; count on the stated rates, not on these rows.

item	mol	NPYLR7 ag max-min	NPYLR7 ag
1	O=C(O)c1cc(-c2ccco2)nn1-c1ccc(Cl)cc1	17	16
2	Cc1cc(C)nc(Nc2n[nH]c(-c3ccc(N)cc3)n2)n1	-1	-1
3	CCN(CC)c1ccc2cc(-c3nnc(Nc4cccc(C(F)(F)F)c4)s3)c(=O)oc2c1	-11	-7
4	O=S(=O)(c1ccc(Cl)cc1)c1nc(Nc2ccc(F)cc2F)sc1Cl	3	3
5	COc1cccc(OC)c1C(=O)Nc1c(C)nc2scc(C)n2c1=O	4	11
6	Cc1ccc(Cc2nsc(N3CCCC3C(=O)NCCC(c3ccccc3)c3ccccc3)n2)cc1 (configuration not stated)	7	0
7	Cc1nc(C(C)NC(=O)c2[nH]c3c(C)ccc(C)c3c2C)n[nH]1 (configuration not stated)	-2	-2
8	O=C(c1cccnc1)N1CCc2c(ncnc2NCCn2cccn2)C1	-1	1
9	CN(C)C(=O)CCC(=O)N1CCN(Cc2cccc(-c3noc(C4CCCC4)n3)c2)CC1	9	21
10	CC(=O)Nc1cccc(C2=NN(S(C)(=O)=O)C(c3ccco3)C2)c1 (configuration not stated)	1	2
11	c1cnn(CC2CN(Cc3cc4n(n3)CCNC4)CCCO2)c1 (configuration not stated)	5	3
12	Cc1ccc(/C=N\NC(=O)C(C)Sc2nc3ccccc3s2)cc1 (configuration not stated)	12	3
13	CN1CCN([C@H]2CN(Cc3ccc(Sc4nncn4C)o3)C[C@@H]2O)CC1	9	-2
14	Cc1cc(C)cc(NC(=O)CCn2cnc3sc4c(c3c2=O)CCCC4)c1	3	5
15	CCOC(=O)C1(Cc2ccccc2C)CCCN(C(=O)Nc2ccc3c(c2)OCO3)C1 (configuration not stated)	8	5
16	O=C1COc2cc(NC(=O)N(Cc3cccnc3)CC3CCCO3)c(Cl)cc2N1 (configuration not stated)	4	5
17	COc1ccc(-c2cc(C(=O)N3CCN(c4ccccc4OC)CC3)n(-c3cc(C)ccc3C)n2)c(OC)c1	3	-1
18	CCN(CC)CCCNc1nc(=O)[nH]nc1C	5	15
19	Cc1nc2ccccn2c1P(=Nc1ccc([N+](=O)[O-])cc1)(N1CCOCC1)N1CCOCC1	5	7
20	CCOc1cc2c(cc1OCC)CN(Cn1nc(C3CC3)n(CC)c1=S)CC2	0	5
21	COc1cc2c(cc1OC)CN(C(=O)c1ccc(-c3cc(-c4ccc(Cl)cc4)[nH]n3)cc1)CC2	3	-1
22	COc1cc2c(cc1OC)C(CNC(=O)c1cccs1)N(C(=O)Nc1ccccc1F)CC2 (configuration not stated)	7	-3
23	CN1CCC(N(Cc2ccccc2)C(=O)c2n[nH]c3c2CCC3)CC1	8	7
24	O=S1(=O)C=CC(N2CCCCC2)C1 (configuration not stated)	-5	-3
25	Cc1csc(-c2cccc(NC(=O)NC(C)c3nncn3C)c2)n1 (configuration not stated)	-8	-7
26	CC(CNC(=O)CCc1nc2cc(S(=O)(=O)N3CCCCC3)ccc2n1C)c1ccccc1 (configuration not stated)	-4	-2
27	Cc1ccc(Nc2cc(C)nc(N3CCN(C(=O)Nc4cc(C)ccc4C)CC3)n2)cc1	3	11
28	Nc1ncnc2oc(-c3ccccc3)c(-c3ccccc3)c12	0	2
29	CCOC(=O)CNC(=O)N1CCCC(C(=O)c2cccc(C(F)(F)F)c2)C1 (configuration not stated)	16	24
30	O=C(c1ccc2nc(C3CCCCC3)oc2c1)N1CCC(Oc2cccnc2)CC1	10	18

Continuation.
item	mol	NPYLR7 ag max-min	NPYLR7 ag
31	CNC(=O)C(NC(=O)CNc1ccc(F)c(C)c1)c1ccccc1 (configuration not stated)	4	4
32	COc1ccc(C(=O)N2CCN(C(C(=O)NCc3cccnc3)C3CCCC3)CC2)c(OC)c1 (configuration not stated)	9	3
33	CN(CCc1ccccn1)C(=O)CCC1CCCN(C(=O)c2cccc(N(C)C)c2)C1 (configuration not stated)	2	1
34	Cc1cc(OCC2CN(C(=O)c3ccc(C(F)(F)F)[nH]c3=O)CCO2)ccc1Cl (configuration not stated)	7	16
35	Nc1cc(-c2ccc(Cl)c(Cl)c2)nn1-c1ccc(C(=O)NCc2ccco2)cc1	-3	1
36	COc1cccc(NC(=O)CN2CN(c3ccccc3)C3(CCN(C(=O)c4cccs4)CC3)C2=O)c1	13	2
37	Cc1nc2c(c(=O)c3ccccc3n2C)c(=O)n1C(C)c1ccccc1 (configuration not stated)	-2	0
38	Cn1nc(CO)c2c1CCN(c1ncnc3c1CCNC3)C2	5	11
39	CC(C)C(CNC(=O)CN(C)S(C)(=O)=O)Nc1ccccc1 (configuration not stated)	-4	0
40	CN(C)S(=O)(=O)c1ccc(C(=O)Oc2cc(=O)[nH]c3ccccc23)cc1	1	2
41	COc1cc(CN2CCCn3cccc3C2c2ccccc2O)ccc1O (configuration not stated)	5	8
42	CCc1nc2c(c(=O)c3ccccc3n2C)c(=O)n1Cc1ccco1	6	8
43	CCn1c(SC(C)C(N)=O)nnc1-c1ccco1 (configuration not stated)	6	-2
44	COc1cccc2sc(N(Cc3cccnc3)C(=O)c3cc(C)nn3C)nc12	2	5
45	Cn1c(SCc2nnc(-c3ccc(Cl)cc3)o2)nnc1-c1ccc(Cl)cc1	0	3
46	C=CC[C@@H]1CC=C[C@@H](C)N1C(=O)c1nc2cccc(C)n2c1F	0	2
47	COc1cc2ccccc2cc1C(=O)N1CCNC(=O)C1C (configuration not stated)	-9	-10
48	CN(c1nc(N)c2c(N)nc3c(c2c1C#N)CC(=O)N3Cc1cccs1)C1CCS(=O)(=O)C1 (configuration not stated)	5	3
49	COc1ccccc1NC(=O)C(Sc1nnc2n1CCCCC2)C(C)C (configuration not stated)	374	-6
50	CCc1ccc2nc(N3CCCN(C(=O)COC)CC3)cc(C)c2c1	-14	-13
51	Cc1ccc(CSc2ncc(CO)n2CC(N)=O)cc1	9	15
52	CCc1nc(CN2CCN3CCN(C)CC3C2)c(C)[nH]1 (configuration not stated)	12	3
53	Fc1ccc(CN2C3=NCCN3c3ccccc32)cc1	7	11
54	Cc1nc2n(n1)C(=O)C(C(c1cccc(Br)c1)N1CCC(O)CC1)S2 (configuration not stated)	-10	-4
55	NC(=O)C(NCC1SCCc2ccccc21)c1ccccc1 (configuration not stated)	-5	0
56	Cc1cccc(NC(=O)CC(=O)NCc2cccc3[nH]ccc23)c1C	1	18
57	Cc1ccc(C)c(C(=O)CN2C(=O)NC(C)(c3ccc(C(C)(C)C)cc3)C2=O)c1 (configuration not stated)	10	13
58	Cc1ccccc1-c1nc(OCC(C)C)n[nH]1	-7	2
59	O=C(O)C(Cc1cnc[nH]1)N1C(=O)C2C3C=CC(C3)C2C1=O (configuration not stated)	-1	2
60	CCOc1ccccc1N1CCN(C(=O)c2cc(-c3ccc(OC)cc3)n3nc(C)c(-c4ccccc4)c3n2)CC1	11	10

Following part:
item	mol	NPYLR7 ag max-min	NPYLR7 ag
61	CNc1cccc(-c2cccc(C(=O)N(C)C)c2)n1	0	3
62	Cn1c(=O)c2c(nc(CN3CCOCC3)n2Cc2ccc(Cl)c(Cl)c2)n(C)c1=O	-1	2
63	CCOC(=O)NC(=S)Nc1ccc(CP(=O)(OCC)OCC)cc1	-20	-13
64	COc1c(C)cc(CN(C)C(=O)NCc2ccncc2)cc1C	3	5
65	COc1cccc(-n2cc(CN(C)Cc3cnc(S(C)(=O)=O)n3CC(C)C)cn2)c1	1	5
66	COc1ccc(-c2nccc(N3CCC(O)C3)n2)cn1 (configuration not stated)	1	1
67	Cc1ccc(Sc2ccc(NC(=O)CN(CC(N)=O)C(C)C)cc2)c(C)c1	21	-1
68	Cc1ccc2oc3c(c(=O)c2c1)C(c1cccc([N+](=O)[O-])c1)N(c1cc(C)on1)C3=O (configuration not stated)	5	7
69	CCSc1nnc(-c2ccc(Cl)cc2Cl)o1	2	10
70	CCc1nc(CN2CCCC(C(=O)Nc3ccccc3-c3ccc(OC)cc3)C2)c(C)[nH]1 (configuration not stated)	-22	-25
71	O=C(Nc1ccc(N2CCOCC2)cc1)c1ccccc1N1CCCC1=O	-4	-3
72	O=C(CCCSc1ccc(NC(=O)C2CC2)nn1)NCCN1CCOCC1	-2	-1
73	Cc1cnc(C(=O)N2CCOC(COc3ccc(Cl)c(C)c3)C2)cn1 (configuration not stated)	23	20
74	Cc1cccc2sc(NC(=O)CNC(=O)c3ccc4c(c3)OCO4)nc12	-2	-1
75	CC(C)NC(=O)Nc1ccc(CNC(=O)CO[C@H]2C[C@@H](C)CC[C@@H]2C(C)C)cc1	-8	-7
76	CC(NC(=O)c1cc2n(n1)CCN(C)C2)c1ccccc1-n1cccn1 (configuration not stated)	-8	-1
77	CCS(=O)(=O)c1ccc(C(=O)N(Cc2ccccn2)c2nc3c(Cl)cccc3s2)cc1	-1	3
78	COCC(=O)N1CCC2(CC1)CN(CC1C[C@H]3C=C[C@@H]1C3)CCN2C (some centres not stated)	3	0
79	CNc1ncc(CN(C)C(=O)c2cccc(-n3cccn3)c2)cn1	10	23
80	COc1cc2ccccc2cc1C(=O)Oc1cccc2cccnc12	-9	-2
81	COc1ccc(NC(=O)N2CCN(c3cc(Oc4ccc(Cl)cc4)ncn3)CC2)cc1	-3	-9
82	COc1ccccc1N1CCN(c2ccc(NC(=O)Nc3c(C)cccc3C)cc2C(=O)N2CCCCC2)CC1	-6	-7
83	CCCOc1cccc(C(=O)N2c3ccccc3CCC2C)c1 (configuration not stated)	0	2
84	CCCCCCOc1ccccc1C(N)=O	-21	-18
85	CN(Cc1ccno1)C(=O)c1cc2n(n1)CCCN(Cc1ccccc1)C2	1	6
86	O=C(Nc1ccc(F)cc1)C1CC(=O)N(CCc2ccccc2)C(=Nc2cccc(Cl)c2)S1 (configuration not stated)	2	3
87	CCC(C)NC(=O)c1c(O)nc2cc(C)ccn2c1=O (configuration not stated)	1	-1
88	Cc1ccnc(CC(C)N(C)C(=O)c2cc(=O)c3ccccc3o2)c1 (configuration not stated)	2	5
89	O=C(CSc1nnc(-c2ccncc2)n1-c1cccc(C(F)(F)F)c1)N1CCOCC1	9	-3
90	CSc1n[nH]c2nc3c(c(=O)n12)C1(CCCC1)Cc1ccccc1-3	3	10

Following part
item	mol	NPYLR7 ag max-min	NPYLR7 ag
91	Cc1cc(C)cc(NC(=O)CCC(=O)c2ccc3ccccc3c2)c1	8	7
92	Cn1ncnc1-c1ccnc(N2CCCC(F)(F)C2)n1	-4	-1
93	CC(=O)NCCn1cnc(-c2ccccc2)c1-c1[nH]c2ccccc2c1C	0	28
94	COc1ccc(CC(=O)NC2CCN(CC(=O)NC(C)C)CC2)cc1	8	9
95	O=C(Nc1ccnn1Cc1ccccc1)C1CCN(S(=O)(=O)c2ccc(F)c(F)c2)CC1	-2	3
96	Cc1cc2nc(-c3ccc(NC(=O)c4cc([N+](=O)[O-])c(C)c([N+](=O)[O-])c4)cc3)oc2cc1C	-12	-5
97	CN(Cc1nc2ccccc2s1)C(=O)c1cc(CN2CCOCC2)on1	-15	-6
98	CCOC(=O)CCCSc1nc(N)c2c(C)c(C)sc2n1	-1	-1
99	COc1ccc(NC(=O)N(Cc2ccc(OS(C)(=O)=O)cc2)Cc2ccco2)c(OC)c1	11	11
100	CCN(CCn1cccn1)C(=O)c1cc(COc2ccc(-n3cncn3)cc2)on1	-4	-3
101	CC(C)Cc1ccc(CN2CCCC(NC(=O)CCc3cnn(C)c3)C2)cc1 (configuration not stated)	-2	-1
102	CCCOc1cccn2c(N(C)C(=O)c3cccc(OC)c3)c(CC)nc12	-4	5
103	Cc1ccc(-n2nnnc2CNS(C)(=O)=O)cc1	-2	1
104	O=C(NC1CCc2[nH]ncc2C1)c1ccc(OC2CCCC2)cc1 (configuration not stated)	-10	-7
105	COCC(=O)Nc1ccc(N(C)C)c(CN(C(=O)COC)C2CCCCC2)c1	-2	-4
106	O=C(CNC(=O)C1CC1(c1ccccc1)c1ccccc1)NCc1ccc(O)c(O)c1 (configuration not stated)	-13	-6
107	COc1ccc(F)c(CN2CCCC3(CCN(Cc4cccnc4)C3)C2=O)c1 (configuration not stated)	-3	1
108	COCCCN(Cc1c(-c2ccc(F)cc2)noc1N1CCN(C)CC1)C(=O)Nc1ccc(C)cc1	8	9
